# A1 inh: inhibitors of the anti-apoptotic protein A1, read as caspase activation | MEF A1-2A-BIM cells, Caspase-Glo 3/7 luminescence, 3 h; percent of clofoctol response, vehicle zero | caspase activation, % (concentration not given with the values) | hit rate 0.066% among 330,000 | AID 2462;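 active means over half of replicate activation scores above 10%, or exactly half above 10 with the replicate mean above 10; inconclusive means replicate mean below 10 yet half the replicates above 10; inactive means over half of replicates below 10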;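 further: wells of about 30 µL received 50 nL stock; many hits fall short of the cut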
# T cruzi inh: blocks replication of Trypanosoma cruzi; inhibition, % (test concentration not listed); T. cruzi beta-gal in NIH3T3, luminescence, 90 h; hit rate 1.4% among 300,000;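 active means mean inhibition across valid replicates above about 55%, limit read from the data; inconclusive means mean below that limit but half or more replicates reach it; inactive means mean below it, under half of replicates reach it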;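 further: signal also drops with host cell toxicity which is not excluded here; 0% = plate median of DMSO wells and 100% = zero luminescence signal; higher percent means less beta-gal luminescence so fewer parasites; stock transfer was 50 nL into about 50 µL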
# LANA-H2A inh: blocks KSHV LANA binding to histone H2A/H2B; cell-free LANA-H2A/H2B peptide, fluorescence polarization; inhibition, % (test concentration not listed); hit rate 0.6% among 320,000; Q9QR71; in the data active means inhibition mostly above about 10%, no sharp cut-off; inactive means mostly below about 6.7%;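 further: stock transfer was 7.5 nL into about 10 µL; 0% = median of vehicle wells and 100% = median of positive control wells; one replicate is shown; the record names a cut of 25% in any replicate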
# rRNA inh HTS: inhibitors of bacterial rRNA selective over humanized ribosomes; E. coli WT GFP vs humanized-ribosome RFP mutants, fluorescence, 24 h; hits give low values; DMSO median 0, no signal -100; GFP signal change (wild-type ribosome), % (concentration not given with the values); hit rate 1.6% among 350,000; AID 720706;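 active means significant combined selectivity score with lowered wild-type GFP, culture density cut under 30%, mutant RFP and density less affected; inactive means any of these conditions unmet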; further: one replicate is shown; some compounds called inactive have numbers as strong as hits
# ALR H2O2 inh: human ALR oxidase inhibition via reduced H2O2; P55789; purified ALR, DTT oxidation, H2O2 HRP-luminol luminescence; inhibition, % (no concentration beside the values); hit rate 3.8% among 290,000;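 active means mean and each replicate at 75% or more; inconclusive means only one of the two met; inactive means neither met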;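 further: stock transfer was 7.5 nL into about 7.5 µL; 0% = neutral wells and 100% = wells with inactivated enzyme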
# Target sequence (P55789 whole entry, looked up): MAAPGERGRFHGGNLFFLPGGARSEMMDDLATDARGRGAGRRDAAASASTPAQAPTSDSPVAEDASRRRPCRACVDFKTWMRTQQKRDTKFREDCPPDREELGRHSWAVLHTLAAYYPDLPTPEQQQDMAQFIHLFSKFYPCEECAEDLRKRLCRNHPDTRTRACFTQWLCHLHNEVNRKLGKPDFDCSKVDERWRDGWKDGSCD
# Beta2AR agonist: human beta-2 adrenergic receptor agonism by FAP; P07550; Am2.2-beta2AR cells, FAP receptor internalization, flow cytometry; reference of the scale not given here; response, % (test concentration not listed); hit rate 0.43% among 340,000; AID 504454;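 active means response above a set limit, near 3 SD of response in nonfluorescent compounds, cut at about 42% in these data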;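 further: stock transfer was 100 nL into about 11 µL; a reference agonist was the positive control; negative values mostly stem from fluorescent compounds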
# Target sequence (P07550 whole entry, looked up): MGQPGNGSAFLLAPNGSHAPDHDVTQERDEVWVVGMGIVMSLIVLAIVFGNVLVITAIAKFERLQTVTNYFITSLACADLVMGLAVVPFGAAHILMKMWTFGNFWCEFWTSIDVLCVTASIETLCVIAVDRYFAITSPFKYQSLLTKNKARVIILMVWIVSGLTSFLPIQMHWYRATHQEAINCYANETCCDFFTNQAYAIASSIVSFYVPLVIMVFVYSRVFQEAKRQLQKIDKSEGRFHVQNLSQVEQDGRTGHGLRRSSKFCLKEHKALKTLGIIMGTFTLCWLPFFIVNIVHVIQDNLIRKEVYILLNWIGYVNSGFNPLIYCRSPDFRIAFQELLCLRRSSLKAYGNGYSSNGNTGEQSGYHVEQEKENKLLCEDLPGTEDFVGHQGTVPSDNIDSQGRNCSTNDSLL
# Calb FLC: affects C. albicans growth with fluconazole. growth inhibition, % (no concentration beside the values). hit rate 0.57% among 300,000. C. albicans CaCi-2 (fluconazole-resistant clinical isolate) + fluconazole, Alamar Blue growth, 48 h. AID 1979;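 active means most replicates above 75%; inconclusive means exactly half above 75%; inactive means most below 75%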;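 further: all wells also contain fluconazole at 8 µg/ml as a sub-toxic cotreatment; 0% = median of DMSO wells and 100% = median of geldanamycin control wells; wells of about 8 µL received 7.5 nL stock; the first replicate is given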
# Beta apoptosis: blocks beta cell apoptosis. INS-1E cytokine-induced death, ATP luminescence, 48 h; percent of positive-control rescue, neutral wells zero. protection from apoptosis, % (concentration not given with the values). hit rate 0.8% among 300,000. AID 435005;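 active means all replicates at 75% or more, or half of them and the mean; inconclusive means half reach 75% but not the mean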;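 further: 0% = cytokine-treated negative control wells and 100% = positive control rescue; higher means more ATP so stronger rescue from cytokine killing; wells of about 40 µL received 100 nL stock; the first replicate is given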
# rRNA inh HTS OD600: also measured in rRNA inh HTS; calls as there; OD600 change, %; measured here: OD600 growth;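 optical density of the mix in the first replicate; 0 = DMSO median and -100 = no signal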
# rRNA inh HTS RFP: further read-out of rRNA inh HTS, marked with its call; RFP signal change, %; measured here: RFP humanized mutant strains;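 first replicate; 0 = DMSO median and -100 = no signal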
# Active calls of the source: *; ? = inconclusive; · = not tested or not shown; & = joins results of further samples. An excerpt; rates above refer to the full screens.
# Every second line gives: A1 inh, T cruzi inh, LANA-H2A inh, rRNA inh HTS, rRNA inh HTS OD600, rRNA inh HTS RFP, ALR H2O2 inh, Beta2AR agonist, Calb FLC, Beta apoptosis
O=C(c1ccccc1)N1CCSC1=S
  0.7, -7, 2.2, ·, ·, ·, 1, 3, 11, -9
N/C(=N\OC(=O)C1CCCCC1)c1cccnc1
  -0.4, -28, 2.8, 6, 2, -7.9, 37, -1, -1, -6
COc1cc2c(C(=O)NCCN(C)C)cn(CC(C)C)c(=O)c2cc1OC
  -0.4, 46, 2.7, 9, 5, -2.9, 0, -10, 4, 2
Cn1c(CN2CCOCC2)nnc1SCC(=O)Nc1cccc(C(F)(F)F)c1
  -0.5, -4, 0.3, 1, 3, -1.5, 46, 9, 0, -1
CCC(C)[C@H]1CN=C(N)N1CCc1cccc(F)c1 (some centres not stated)
  1.4, 4, 5.2, ·, ·, ·, 2, -1, -26, -1
CCCOP(=O)(OCCC)C(Nc1ccc(C(C)C)cc1)c1ccc([N+](=O)[O-])cc1 (configuration not stated)
  -0.7, 35, -0.9, ·, ·, ·, 5, 0, 3, 10
Nc1c(C(=O)OCC(=O)Nc2ccc(OC(F)F)cc2)[nH]c(=O)[nH]c1=O
  -0.4, ·, 0.0, 7, -3, 3.4, 10, 1, ·, -1
Cc1cc(/C=N/Nc2ccc([N+](=O)[O-])cn2)c(C)n1-c1ccccc1
  -1.2, 51, 0.2, ·, ·, ·, 2, -3, 2, 13
COc1ccccc1Nc1ccc(NS(=O)(=O)c2ccc(C(C)=O)cc2)cc1
  -0.4, ?, -1.1, 4, -4, -3.6, ·, -1, -3, 11
c1ccc(CCNc2ncnc3nc[nH]c23)cc1
  -1.8, -5, -1.7, ·, ·, ·, -7, 1, 4, -7
CCOC(=O)c1ccc(S(=O)(=O)N2CCC(C(=O)O)CC2)cc1
  -0.1, -15, 1.4, 2, 8, 2.0, 1, -4, -6, -2
COc1ccc(-c2csc(NC(=O)C3CC(=O)N(Cc4ccccc4)C3)n2)cc1OC (configuration not stated)
  0.0, 16, 1.7, -19, -32, -5.0, 5, 18, -15, 2
Cc1ccc(C(=O)Nc2cccc(C(=O)NCc3ccccc3)c2)cc1
  -1.8, 1, ·, 2, 4, 0.3, ·, 1, 48, -2
COCCn1c(SCC(=O)Nc2nc(C)c(Cl)cc2Cl)nc2ccccc21
  2.2, 10, -0.4, ·, ·, ·, -1, -7, -26, -4
Cn1nc(C(=O)N2CCN(S(=O)(=O)/C=C/c3ccccc3)CC2)c2ccccc2c1=O
  0.0, 4, 2.0, 1, -2, 3.7, -5, 10, 3, 3
Cc1ccc(N(CC(=O)NCc2ccc3c(c2)OCO3)S(C)(=O)=O)cc1
  0.6, -11, -2.2, ·, ·, ·, ·, 1, -35, -6
O=C(NCCN1CCOCC1)c1cccc2c1C(=O)c1ccc(N3CCCC3)cc1S2(=O)=O
  -0.4, ·, -3.2, 10, 4, 3.1, 2, -8, ·, 4
Cc1ccc(NC2=NC(c3ccccc3)n3c(nc(C)cc3=O)N2)cc1 (configuration not stated)
  -0.4, -9, -0.1, ·, ·, ·, ·, 4, -3, 2
CN(CC(=O)NCCN1CCOCC1)S(=O)(=O)c1ccc(Cl)cc1
  0.5, ·, 1.5, 10, 12, 2.6, -2, -1, ·, 0
CC(C)C(C)(C#N)NC(=O)CSc1ncnc2sc(-c3ccccc3)cc12 (configuration not stated)
  -0.2, 43, -5.9, -4, 11, 2.1, -2, -12, -9, -2
CCOc1ccc(NC(=O)N(CCN2CCOCC2)Cc2ccc3c(c2)CCCN3CC)cc1
  -0.2, 13, -1.8, ·, ·, ·, 100*, -2, 13, -2
O=S(=O)(Nc1cccc(S(=O)(=O)N2CCCC2)c1)c1cccc(Br)c1
  -0.3, ·, 3.7, ·, ·, ·, 1, 4, ·, -6
ClCc1csc(-c2ccccc2Cl)n1
  -0.1, -11, -0.6, 19, 3, -2.9, -1, -2, -17, -8
Cc1ccc(/C=C/c2onc(C)c2S(=O)(=O)N2CCC(C(=O)N3CCN(C)CC3)CC2)cc1
  -0.1, 17, -0.5, -56, -74, -16, -4, 13, -13, 0
CCCCCCSc1ccc([C@H]2N[C@@](C)(C(=O)OC)[C@H]3C(=O)N(C)C(=O)[C@@H]23)cc1
  -0.9, 27, 2.1, -29&7, -40&-4, 1.3&16, -7, 1, -1, 2
CCN(C(=O)CSc1nnnn1C)C1CCCCC1
  0.0, ·, -3.5, ·, ·, ·, ·, -6, ·, -1
COc1ccccc1Nc1nc(N)nc(CSc2nc(C)cc(C)n2)n1
  0.0, 10, 4.9, ·, ·, ·, 47, -8, -5, -7
O=C(O)[C@H](Cc1ccccc1)N1C(=O)c2ccncc2C1=O
  0.2, -7, -4.7, ·, ·, ·, 1, -1, -8, -3
Cc1csc(NC(=O)c2ccccc2C(=O)O)n1
  -0.3, -1, 2.7, ·, ·, ·, -12, 3, 0, -5
OC(CCN1CCCCC1)(c1ccccc1)c1ccccc1
  -0.4, 9, -0.4, 7, 8, 0.7, ·, 2, ·, -4
COc1cc(C(=S)N2CCOCC2)ccc1OS(=O)(=O)c1ccc(Cl)cc1
  -0.8, 2, -2.7, -12, -16, -1.8, 3, -1, 1, ·
Nc1[nH]n(-c2ccccc2)c(=O)c1N=Nc1ccc2c(c1)OCCO2
  -7.3, 24, 1.8, -16, -20, -6.1, 20, 6, -1, -3
O=C(Nc1cnccc1C(F)(F)F)NC1CCCCC1
  0.3, -5, 0.6, 8, 6, -0.3, 6, -1, -1, -1
COc1ccnc(Oc2cc(Cl)cc(Cl)c2)c1C#N
  1.8, 14, -2.1, 6, 4, -0.2, -7, 5, 11, -2
COCCn1c(SCC(=O)c2ccc(F)cc2)nnc1C(C)C
  -1.3, -13, -0.6, ·, ·, ·, 10, -12, 3, -3
O=C(Cn1c(=O)c(=O)n(Cc2ccccc2)c2ccc(Cl)cc21)Nc1cccc(F)c1
  -0.9, 23, 0.3, ·, ·, ·, ·, -16, -11, -8
CCOC(=O)CSc1ccc(S(=O)(=O)N(CC)CC)cc1[N+](=O)[O-]
  2.0, -11, -2.9, 7, 6, 0.4, -10, 5, 24, -4
O=C(NCc1cccc(C(F)(F)F)c1)C1CC(c2c(Cl)cccc2Cl)=NO1 (configuration not stated)
  0.8, -15, -5.4, -19, -26, -6.7, -3, 4, 7, 2
COc1ccc(NC(=S)N2CCC(Cc3ccccc3)CC2)cc1OC
  0.5, -9, 1.7, 2, -34, -1.3, 3, 3, -1, 3
Cc1cc(F)ccc1S(=O)(=O)Nc1ccc(C(=O)N(C)Cc2ccco2)cc1
  -0.7, ·, -0.2, -21, -32, 4.6, ·, 6, ·, -2

# Carrying on.
smiles	A1 inh	T cruzi inh	LANA-H2A inh	rRNA inh HTS	rRNA inh HTS OD600	rRNA inh HTS RFP	ALR H2O2 inh	Beta2AR agonist	Calb FLC	Beta apoptosis
Cc1cc(C)c(C)c(S(=O)(=O)N2CCN(c3ccccn3)CC2)c1C	-1.0	24	-3.4	-32	-36	-2.4	-4	-16	-26	-16
S=C(Nc1cccc(Cl)c1)NC1CCCCC1	-0.4	-8	0.3	·	·	·	-18	-4	-6	-3
CCOc1ccc(NC(=O)C2CC(C)=C(C)CC2C(=O)O)cc1 (configuration not stated)	0.3	9	-6.8	·	·	·	-21	4	-1	1
Cc1cc(-c2ccccc2)nc(N/N=C/c2ccccc2F)n1	0.0	-5	-0.8	-4	8	-0.5	-4	-1	6	8
CCC(C)c1ccc(S(=O)(=O)N2CCN3CCCC3C2)cc1 (configuration not stated)	1.2	12	-5.9	-1	-1	4.2	-25	0	-14	-5
Cc1cc(CSc2nc(C)cc(=O)[nH]2)c2ncccc2c1	0.9	8	2.5	14	6	-0.9	·	-3	31	2
Cc1ccc2c(c1)N(C(=O)CCC(=O)N1CCN(c3ccccn3)CC1)CCO2	-0.7	1	1.9	-16	-13	5.7	-1	-7	-9	-7
Cc1c(C)c2c(c(C)c1O)CC[C@@](C)(CCC[C@H](C)CCC[C@H](C)CCCC(C)C)O2	0.5	10	2.8	·	·	·	-13	-2	·	-7
COC(=O)n1c(=S)oc2cc(Cl)ccc21	0.2	8	-1.5	·	·	·	96*	·	21	3
N#CCCN(C(=O)Nc1ccccc1)c1ccccc1	0.7	-13	-5.1	·	·	·	-1	5	-9	-3
O=C(CCc1ccc(S(=O)(=O)N2CCOCC2)cc1)Nc1nc(COc2ccccc2)cs1	-0.1	4	-4.6	·	·	·	-4	62*	5	51
Cc1c(C(C)C)c(=O)n(-c2ccc(S(=O)(=O)NC3CC3)cc2)n1C	0.4	18	0.9	14	11	1.3	-5	-5	-5	-5
COC(=O)c1c(C(=O)OC)c(-c2cccc(C)c2)n2c1CS(=O)(=O)C2	-1.0	7	4.1	·	·	·	-2	3	-6	2
O=C(COC(=O)c1cccc(F)c1)Nc1ccc(Cl)cn1	-0.4	·	-1.5	0	4	0.3	-2	-1	·	-3
CCOC(=O)c1cnc2c(c(C)nn2CC)c1Cl	-0.8	-27	1.0	6	1	1.5	6	1	3	-7
CCOC(=O)c1ccc(CSC(=N)N)o1	-0.8	1	-4.5	5	3	2.6	99*	-2	3	-20

# Shown field by field: part of the list above
Compound: CN(CC(=O)NCCN1CCOCC1)S(=O)(=O)c1ccc(Cl)cc1
  A1 inh: 0.5 | T cruzi inh: · | LANA-H2A inh: 1.5 | rRNA inh HTS: 10 | rRNA inh HTS OD600: 12 | rRNA inh HTS RFP: 2.6 | ALR H2O2 inh: -2 | Beta2AR agonist: -1 | Calb FLC: · | Beta apoptosis: 0
Compound: CC(C)C(C)(C#N)NC(=O)CSc1ncnc2sc(-c3ccccc3)cc12 (configuration not stated)
  A1 inh: -0.2 | T cruzi inh: 43 | LANA-H2A inh: -5.9 | rRNA inh HTS: -4 | rRNA inh HTS OD600: 11 | rRNA inh HTS RFP: 2.1 | ALR H2O2 inh: -2 | Beta2AR agonist: -12 | Calb FLC: -9 | Beta apoptosis: -2
Compound: CCOc1ccc(NC(=O)N(CCN2CCOCC2)Cc2ccc3c(c2)CCCN3CC)cc1
  A1 inh: -0.2 | T cruzi inh: 13 | LANA-H2A inh: -1.8 | rRNA inh HTS: · | rRNA inh HTS OD600: · | rRNA inh HTS RFP: · | ALR H2O2 inh: 100* | Beta2AR agonist: -2 | Calb FLC: 13 | Beta apoptosis: -2
Compound: O=S(=O)(Nc1cccc(S(=O)(=O)N2CCCC2)c1)c1cccc(Br)c1
  A1 inh: -0.3 | T cruzi inh: · | LANA-H2A inh: 3.7 | rRNA inh HTS: · | rRNA inh HTS OD600: · | rRNA inh HTS RFP: · | ALR H2O2 inh: 1 | Beta2AR agonist: 4 | Calb FLC: · | Beta apoptosis: -6

# Assay outcomes (PubChem BioAssay)
